Source: PubChem BioAssay
FGF22 binding = binders of recombinant human FGF22 by thermal shift; SYPRO orange fluorescence; percent of sucrose octasulfate shift, DMSO zero; 1.5% of 340,000 active; calls only at 9.99 µM; AID 651658; Q9HCT0;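 active means melting point raised past a set limit in the mean and every replicate; three in four hits are not shown here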
rRNA inh HTS = inhibits bacterial ribosomal RNA function over humanized ribosomes; GFP signal change (wild-type ribosome), % (test concentration not listed); E. coli WT GFP vs humanized-ribosome RFP mutants, fluorescence, 24 h; stronger effect = lower value; DMSO median 0, no signal -100; 1.6% of 350,000 active; AID 720706;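 active means significant combined selectivity score with lowered wild-type GFP, culture density cut under 30%, mutant RFP and density less affected; inactive means any of these conditions unmet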; further: one replicate is shown; some compounds called inactive have numbers as strong as hits
B2AR ag = activates human beta-2 adrenergic receptor causing internalization; P07550; Am2.2-beta2AR cells, FAP receptor internalization, flow cytometry; reference of the scale not given here; response, % (concentration not given with the values); 0.43% of 340,000 active; AID 504454;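 active means response above a set limit, near 3 SD of response in nonfluorescent compounds, cut at about 42% in these data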;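 further: stock transfer was 100 nL into about 11 µL; a reference agonist was the positive control; negative values mostly stem from fluorescent compounds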
Target sequence (P07550 whole entry, looked up): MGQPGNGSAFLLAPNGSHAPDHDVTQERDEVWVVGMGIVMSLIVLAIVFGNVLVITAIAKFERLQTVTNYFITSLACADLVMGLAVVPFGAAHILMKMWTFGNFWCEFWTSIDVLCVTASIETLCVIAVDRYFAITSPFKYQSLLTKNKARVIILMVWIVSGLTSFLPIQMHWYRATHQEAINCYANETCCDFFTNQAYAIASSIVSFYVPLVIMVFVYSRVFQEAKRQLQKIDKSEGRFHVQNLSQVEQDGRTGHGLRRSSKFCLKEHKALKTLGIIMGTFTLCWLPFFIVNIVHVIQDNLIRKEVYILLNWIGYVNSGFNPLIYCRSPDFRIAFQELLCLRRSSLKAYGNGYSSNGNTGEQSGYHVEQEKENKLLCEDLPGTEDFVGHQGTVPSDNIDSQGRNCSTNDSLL
HNF4A DNA FP = change in binding of human HNF4 alpha to DNA | 0.3% of 360,000 active | activity change, % at 10 µM | HNF4a-FITC DNA binding, fluorescence polarization, 1 h; in the data active means activity change above about 30%, passing the limit was not always enough;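 further: controls were the assay level and a saturating level of protein; the project sought stronger binding though the title names inhibitors; some compounds called inactive have numbers as strong as hits; positive values seem to mean higher polarization but the record does not say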
ALR H2O2 inh = human ALR oxidase inhibition via reduced H2O2; P55789; purified ALR, DTT oxidation, H2O2 HRP-luminol luminescence; inhibition, % (no concentration beside the values); 3.8% of 290,000 active; AID 485317;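 active means mean and each replicate at 75% or more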;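 further: stock transfer was 7.5 nL into about 7.5 µL; 0% = neutral wells and 100% = wells with inactivated enzyme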
Target sequence (P55789 whole entry, looked up): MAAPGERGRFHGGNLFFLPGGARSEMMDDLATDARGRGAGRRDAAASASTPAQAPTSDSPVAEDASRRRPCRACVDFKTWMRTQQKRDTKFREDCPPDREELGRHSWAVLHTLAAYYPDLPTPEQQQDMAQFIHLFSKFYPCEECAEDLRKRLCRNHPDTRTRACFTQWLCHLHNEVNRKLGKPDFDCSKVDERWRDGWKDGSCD
UCH37 inh = inhibitors of human deubiquitinating enzyme UCH37. Q9Y5K5. purified proteasome/UCH37, Ub-AMC cleavage fluorescence. inhibition, % (concentration not given with the values). 0.33% of 330,000 active;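 active means mean of two replicates above 20%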;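 further: 0% = compound-free wells with enzyme and 100% = wells lacking proteasome; stock transfer was 100 nL into about 20 µL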
Target sequence (Q9Y5K5 whole entry, looked up): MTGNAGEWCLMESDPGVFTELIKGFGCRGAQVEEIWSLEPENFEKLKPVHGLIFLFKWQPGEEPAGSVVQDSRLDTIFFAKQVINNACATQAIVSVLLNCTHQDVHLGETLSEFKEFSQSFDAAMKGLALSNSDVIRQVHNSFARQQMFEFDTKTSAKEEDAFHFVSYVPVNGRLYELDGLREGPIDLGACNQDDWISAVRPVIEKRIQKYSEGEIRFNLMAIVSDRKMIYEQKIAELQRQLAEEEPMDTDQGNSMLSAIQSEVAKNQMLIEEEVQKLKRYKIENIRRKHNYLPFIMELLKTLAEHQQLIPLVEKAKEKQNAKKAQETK
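Assay system: Proteasome-bound UCH37. Buffer or medium: pH 7.4 Tris-HCl (50 mM) with ovalbumin, ATP-MgCl2, DTT. Incubation: 30 min preincubation with enzyme, 25 min cleavage at room temperature. Measured by: fluorescence, ex 355 nm, em 460 nm. Read-out basis: percent inhibition. Control set: wells without proteasome as full block, compound-free enzyme plus substrate as uninhibited.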
E coli growth = E. coli growth inhibition. Escherichia coli growth, OD600, 23 h; stronger effect = lower value. OD600 absorbance (concentration not given with the values). 0.21% of 330,000 active;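 active means OD600 absorbance below the run mean of sample wells minus 3.6 SD, in any replicate, cut at about 0.56 in these data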;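 further: stock transfer was 300 nL into about 60 µL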
rRNA inh HTS OD600 = also measured in rRNA inh HTS; calls as there; OD600 change, %; measured here: OD600 growth;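 optical density of the mix in the first replicate; 0 = DMSO median and -100 = no signal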
rRNA inh HTS RFP = further read-out of rRNA inh HTS, marked with its call; RFP signal change, %; measured here: RFP humanized mutant strains;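 first replicate; 0 = DMSO median and -100 = no signal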
* hit, by the source's call. These rows are one share of the data. The share of hits here may be higher or lower than overall.

`CCC1CCc2sc(C(=O)N(C)CC(=O)Nc3ccc(OC)cc3)cc2C1` (stereo unspecified) gave FGF22 binding inactive, rRNA inh HTS 1.4, B2AR ag -2.6, HNF4A DNA FP -4.0, UCH37 inh 1.6, E coli growth 0.661, rRNA inh HTS OD600 -21.1 and rRNA inh HTS RFP 3.8.
For CN1CCN(NC(=O)c2cccs2)CC1 the results were FGF22 binding inactive, rRNA inh HTS 22.6, B2AR ag 4.7, HNF4A DNA FP -1.0, ALR H2O2 inh 45.2, UCH37 inh 1.3, E coli growth 0.667, rRNA inh HTS OD600 18.8 and rRNA inh HTS RFP 0.5.
Screening O=C(O)CC/C(=C\c1cc([N+](=O)[O-])ccc1Cl)c1nc2ccccc2s1 returned B2AR ag -3.7, HNF4A DNA FP -0.2, ALR H2O2 inh 96.4*, UCH37 inh 7.6 and E coli growth 0.687.
Fc1ccccc1/C=N/Nc1nn[nH]n1 was read as B2AR ag -6.5, HNF4A DNA FP -2.4 and ALR H2O2 inh 4.9.
Screening Cc1[nH]n(C(N)=S)c(=O)c1N=Nc1ccc([N+](=O)[O-])cc1Cl returned FGF22 binding inactive, rRNA inh HTS -0.1, B2AR ag 11.7, HNF4A DNA FP 0.8, ALR H2O2 inh 25.2, UCH37 inh 16.0, E coli growth 0.667, rRNA inh HTS OD600 5.8 and rRNA inh HTS RFP -1.9.
`COc1nc(=O)n(C2OC(CO)C(O)C2O)cc1C` (stereo unspecified) gave FGF22 binding inactive, rRNA inh HTS 7.4, B2AR ag 4.8, HNF4A DNA FP 6.7, rRNA inh HTS OD600 8.6 and rRNA inh HTS RFP -1.6.
For COc1cc2cnc(C3=CCCCC3)cc2cc1OC the results were FGF22 binding inactive, rRNA inh HTS -4.6, B2AR ag -9.2, HNF4A DNA FP -0.3, ALR H2O2 inh 15.0, UCH37 inh -10.1, E coli growth 0.64, rRNA inh HTS OD600 3.5 and rRNA inh HTS RFP 10.8.
`NC(=O)c1cc(Cl)ccc1OCC(=O)Nc1ccc2c(c1)OCO2` gave FGF22 binding inactive, rRNA inh HTS -3.9, B2AR ag -0.8, HNF4A DNA FP -3.9, ALR H2O2 inh 1.9, rRNA inh HTS OD600 -9.2 and rRNA inh HTS RFP -2.7.
CN(C)CCCNc1ncnc2c1c(-c1ccccc1)cn2-c1ccccc1 was read as FGF22 binding inactive, rRNA inh HTS -11.5, B2AR ag -8.3, HNF4A DNA FP -0.8, ALR H2O2 inh -2.7, UCH37 inh -1.1, E coli growth 0.745, rRNA inh HTS OD600 -26.1 and rRNA inh HTS RFP 5.1.
For N#Cc1ccc(S(=O)(=O)Nc2ccccc2N2CCOCC2)cc1 the results were FGF22 binding inactive, rRNA inh HTS -0.4, B2AR ag 6.2, HNF4A DNA FP -2.2, ALR H2O2 inh 4.1, UCH37 inh 1.3, E coli growth 0.666, rRNA inh HTS OD600 -7.9 and rRNA inh HTS RFP 0.8.
For Cc1ccccc1NS(=O)(=O)c1c(C(=O)N2CCCCCC2)c(C)n(C)c1C the results were FGF22 binding inactive, rRNA inh HTS 1.6, B2AR ag -7.0, HNF4A DNA FP 0.9, ALR H2O2 inh -0.5, UCH37 inh 3.6, E coli growth 0.677, rRNA inh HTS OD600 -6.3 and rRNA inh HTS RFP 0.8.
`CC(C)CC(NS(=O)(=O)c1ccccc1)C(=O)O` (stereo unspecified) gave B2AR ag -2.9, HNF4A DNA FP -2.6, ALR H2O2 inh -4.7, UCH37 inh -1.4 and E coli growth 0.741.
`CCOC(=O)C1=C(C)OC(N)=C(C#N)C1c1cc(F)ccc1F` (stereo unspecified) gave FGF22 binding inactive, rRNA inh HTS 7.4, B2AR ag -2.8, HNF4A DNA FP 2.0, UCH37 inh -0.6, E coli growth 0.67, rRNA inh HTS OD600 9.8 and rRNA inh HTS RFP 0.7.
For CCOC(=O)N1C2=NC(C(=O)OC)=C(C(=O)OC)[C@@H]3N(C)c4ccccc4[C@]23C[C@H]1C(=O)OC the results were FGF22 binding inactive, rRNA inh HTS 3.7, B2AR ag -5.3, HNF4A DNA FP 8.3, ALR H2O2 inh 8.8, UCH37 inh 4.4, rRNA inh HTS OD600 8.0 and rRNA inh HTS RFP -0.5.
Screening CC1=CC(=O)C2(C)C(C)=C(C)C12C (stereo unspecified) returned FGF22 binding inactive, rRNA inh HTS 5.5, HNF4A DNA FP 1.7, rRNA inh HTS OD600 12.5 and rRNA inh HTS RFP -3.4.

The last two records of the section before come first, to join the parts.
For CCOC(=O)N1C2=NC(C(=O)OC)=C(C(=O)OC)[C@@H]3N(C)c4ccccc4[C@]23C[C@H]1C(=O)OC the results were FGF22 binding inactive, rRNA inh HTS 3.7, B2AR ag -5.3, HNF4A DNA FP 8.3, ALR H2O2 inh 8.8, UCH37 inh 4.4, rRNA inh HTS OD600 8.0 and rRNA inh HTS RFP -0.5.
Screening CC1=CC(=O)C2(C)C(C)=C(C)C12C (stereo unspecified) returned FGF22 binding inactive, rRNA inh HTS 5.5, HNF4A DNA FP 1.7, rRNA inh HTS OD600 12.5 and rRNA inh HTS RFP -3.4.
O=C(O)c1cc(N/N=C/C=C/c2ccccc2)ccc1Cl was read as rRNA inh HTS -8.0, B2AR ag 3.3, HNF4A DNA FP -1.8, ALR H2O2 inh 98.8*, rRNA inh HTS OD600 4.0 and rRNA inh HTS RFP -6.0.
For O=C(COc1ccc(F)cc1F)Nc1cccnc1 the results were FGF22 binding inactive, rRNA inh HTS 5.3, B2AR ag 3.0, HNF4A DNA FP -1.0, ALR H2O2 inh -7.3, UCH37 inh 0.7, E coli growth 0.688, rRNA inh HTS OD600 18.1 and rRNA inh HTS RFP 0.7.
Screening CN(C)CCNC(=O)c1cc2cc(Br)ccc2oc1=O returned B2AR ag -9.1, HNF4A DNA FP 1.6, ALR H2O2 inh -2.2, UCH37 inh -0.9 and E coli growth 0.708.
Screening C(=N\n1cnnc1)/c1nc2ccccc2[nH]1 returned B2AR ag 0.6, HNF4A DNA FP 2.6 and ALR H2O2 inh -1.8.
For O=C(O)c1cc(NC(=O)c2ccc3c(c2)C(=O)N(Cc2ccccc2)C3=O)cc(C(=O)O)c1 the results were FGF22 binding inactive, rRNA inh HTS 3.8, B2AR ag 0.8, HNF4A DNA FP 3.1, ALR H2O2 inh -6.4, UCH37 inh 7.0, E coli growth 0.671, rRNA inh HTS OD600 11.7 and rRNA inh HTS RFP -1.4.
`CN(Cc1ccccc1)CC(O)COc1ccc(CNCc2cccnc2)cc1` (stereo unspecified) gave FGF22 binding inactive, rRNA inh HTS 10.6, B2AR ag 10.5, HNF4A DNA FP 5.1, ALR H2O2 inh -32.6, rRNA inh HTS OD600 4.7 and rRNA inh HTS RFP 1.4.
Screening CN(C(=O)CSc1nnnn1C)C1(C#N)CCCCC1 returned FGF22 binding inactive, rRNA inh HTS 8.1, B2AR ag 5.6, HNF4A DNA FP -1.4, UCH37 inh -0.5, E coli growth 0.688, rRNA inh HTS OD600 3.5 and rRNA inh HTS RFP -0.3.
Screening CC(C(=O)Nc1nc2ccccc2[nH]1)N1C(=O)C2CC=CCC2C1=O (stereo unspecified) returned B2AR ag -3.0, HNF4A DNA FP -1.1, ALR H2O2 inh 2.0, UCH37 inh 0.6 and E coli growth 0.73.
O=C1NC(c2ccccc2)N=C2Oc3ccccc3C=C12 (stereo unspecified) was read as FGF22 binding inactive, rRNA inh HTS 5.3, B2AR ag -5.7, HNF4A DNA FP 0.9, rRNA inh HTS OD600 -33.8 and rRNA inh HTS RFP -7.4.
Screening NNC(=O)c1cc(-c2ccc(N)cc2)nc2ccc(Br)cc12 returned FGF22 binding inactive, rRNA inh HTS 1.5, B2AR ag 2.8, HNF4A DNA FP -5.5, UCH37 inh 7.3, E coli growth 0.64, rRNA inh HTS OD600 0.2 and rRNA inh HTS RFP 0.3.
O=c1[nH]c2ccc(N/C(=N/S(=O)(=O)c3ccccc3)c3ccccc3)cc2[nH]1 was read as B2AR ag 3.7, HNF4A DNA FP -1.3 and ALR H2O2 inh -7.0.
On1c(-c2ccco2)nc2c1CCc1nonc1-2 was read as B2AR ag -3.6, HNF4A DNA FP 0.0, ALR H2O2 inh -16.1, UCH37 inh 8.7 and E coli growth 0.634.
Screening Cc1ccc(NC(=O)c2ccc(-n3cccn3)c([N+](=O)[O-])c2)cc1 returned B2AR ag 10.4, HNF4A DNA FP -4.8, UCH37 inh 2.1 and E coli growth 0.662.
`Cc1n[nH]c(C)c1CCCOc1ccccc1` gave B2AR ag -3.4, HNF4A DNA FP -3.4, ALR H2O2 inh -8.1, UCH37 inh 3.0 and E coli growth 0.637.
For CCN(CC)C(=O)Oc1ccnc2cc(Cl)ccc12 the results were FGF22 binding inactive, rRNA inh HTS 12.4, B2AR ag -0.6, HNF4A DNA FP 5.7, ALR H2O2 inh 8.5, UCH37 inh 3.1, E coli growth 0.67, rRNA inh HTS OD600 6.0 and rRNA inh HTS RFP 7.7.
Screening CSCCC(NC(=O)COc1ccccc1)C(=O)N1CCCC(C(F)(F)F)C1 (stereo unspecified) returned FGF22 binding inactive, rRNA inh HTS -2.9, B2AR ag -8.8, HNF4A DNA FP 2.8, ALR H2O2 inh -0.2, UCH37 inh 5.0, E coli growth 0.665, rRNA inh HTS OD600 0.4 and rRNA inh HTS RFP 2.1.
`O=C(CC1C(=O)NCCN1Cc1ccc(F)cc1)NC1CCCCCCC1` (stereo unspecified) gave FGF22 binding inactive, rRNA inh HTS 3.1, B2AR ag 0.1, HNF4A DNA FP 1.2, ALR H2O2 inh -18.2, UCH37 inh -0.9, E coli growth 0.729, rRNA inh HTS OD600 -1.0 and rRNA inh HTS RFP 1.8.
`O=S1(=O)CCN(Cc2ccc(F)cc2)CC1` gave FGF22 binding inactive, rRNA inh HTS 2.9, B2AR ag 7.8, HNF4A DNA FP 9.1, ALR H2O2 inh -2.0, UCH37 inh 0.5, E coli growth 0.652, rRNA inh HTS OD600 0.5 and rRNA inh HTS RFP 0.4.
For CCc1nnc(NC(=O)CCC(=O)N2CCN(c3cccc(Cl)c3)CC2)s1 the results were FGF22 binding inactive, rRNA inh HTS -2.6, B2AR ag -3.1, HNF4A DNA FP 2.5, ALR H2O2 inh 1.8, UCH37 inh 0.6, E coli growth 0.651, rRNA inh HTS OD600 -6.3 and rRNA inh HTS RFP -0.3.
`COc1ccccc1CNC(=O)CCCC(=O)n1nc(C)c2ccccc21` gave FGF22 binding inactive, rRNA inh HTS -9.9, B2AR ag -3.2, HNF4A DNA FP -2.0, ALR H2O2 inh 1.3, UCH37 inh 0.7, E coli growth 0.629, rRNA inh HTS OD600 -9.7 and rRNA inh HTS RFP -0.9.
Screening Cc1ccccc1-c1nnc(SCC(=O)NCc2ccc3c(c2)OCO3)n1C returned B2AR ag 11.6, HNF4A DNA FP 0.0, ALR H2O2 inh 9.5, UCH37 inh -0.8 and E coli growth 0.688.
For CCCCOc1ccc(C(=O)N/C(=C\c2ccc(OC)cc2)C(=O)OCc2ccco2)cc1 the results were B2AR ag -3.5, HNF4A DNA FP -1.1, ALR H2O2 inh -2.4, UCH37 inh 1.8 and E coli growth 0.78.
For Cc1ccc(-n2c(Cc3noc4ccccc34)n[nH]c2=S)cc1 the results were FGF22 binding inactive, rRNA inh HTS 3.9, B2AR ag -0.1, HNF4A DNA FP 3.1, ALR H2O2 inh 41.1, UCH37 inh 1.5, E coli growth 0.649, rRNA inh HTS OD600 -2.3 and rRNA inh HTS RFP 1.7.
Screening COc1ccc(F)cc1S(=O)(=O)Nc1cc2c3c(c1)CCC(=O)N3CCC2 returned FGF22 binding inactive, rRNA inh HTS 2.1, B2AR ag 23.7, HNF4A DNA FP 1.0, ALR H2O2 inh -6.7, UCH37 inh 1.2, E coli growth 0.684, rRNA inh HTS OD600 6.0 and rRNA inh HTS RFP 0.7.
